HPGD block = qHTS Assay for Inhibitors of HPGD (15-Hydroxyprostaglandin Dehydrogenase); AID 894, 2007; purified HPGD, NADH fluorescence kinetic, PGE2 substrate; Potency, µM, inactives show at the top dose activity change, negative = inhibition, actives largely listed as inhibitors; 15-hydroxyprostaglandin dehydrogenase [NAD(+)] (Homo sapiens), P15428; 150,000 compounds, 4.3% hits; active = well fitted inhibition curve with a large enough effect (not every such curve was filed as active); inconclusive = small, poorly fitted or top-dose-only effect, or another doubt; inactive = no such curve, though single readings can be large or run the other way;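 further: top concentration of the series not given in the record; plate controls included wells without enzyme; inactives centre near -10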
Target sequence (P15428 whole entry, looked up): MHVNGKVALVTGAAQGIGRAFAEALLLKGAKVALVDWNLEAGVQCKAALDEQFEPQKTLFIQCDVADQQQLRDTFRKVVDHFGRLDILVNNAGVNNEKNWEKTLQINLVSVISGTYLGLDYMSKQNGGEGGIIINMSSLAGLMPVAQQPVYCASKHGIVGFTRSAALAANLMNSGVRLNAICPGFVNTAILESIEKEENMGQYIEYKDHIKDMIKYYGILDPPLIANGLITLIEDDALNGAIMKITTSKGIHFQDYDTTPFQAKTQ
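20 nM HPGD preincubated 15 min at room temperature with compound in 50 mM Tris-HCl pH 8, 0.01% Tween 20. Started with 1 mM NAD+ and 30 uM prostaglandin E2; NADH fluorescence (360/450 nm) read 5 times over 30-s intervals, last minus first.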
* = called active by the depositor; ? = inconclusive; [ ] = another dose, or the depositor's remark. On the % scale 0 is the no-effect control and ±100 the full control effect; potency means the concentration at half of the fitted maximal effect.

Molecule,HPGD block
CCC(C)C1NC(=O)C(CCNCS(=O)(=O)O)NC(=O)C(NC(=O)C(CCNCS(=O)(=O)O)NC(=O)C(NC(=O)C(CCNCS(=O)(=O)O)NC(=O)CCCCC(C)C)C(C)O)CCNC(=O)C(C(C)O)NC(=O)C(CCNCS(=O)(=O)O)NC(=O)C(CCNCS(=O)(=O)O)NC(=O)C(C(C)CC)NC1=O (stereo unspecified),-7%
O=C(O/N=C1\CCCc2ccccc21)c1cccc(Cl)c1,-17%
Nc1ncnc2c1c(I)cn2C1OC(CO)C(O)C1O (stereo unspecified),-8%
Cc1c(CCOC(=O)CC23CC4CC(CC(C4)C2)C3)sc[n+]1CC(=O)c1ccc(Br)cc1,-8%
Cn1c(=O)n(C)c2cc(C(=O)Nc3ccc4c(c3)OCO4)ccc21,-7%
Nc1ccc(C#Cc2ccccc2)cc1,-6%
N=c1sccn1CC(=O)N1CCc2ccccc21,3%
Fc1ccc(C2CC(c3cccs3)=NN2C(=S)Nc2ccccc2)cc1 (stereo unspecified),-7%
COc1cccc([C@@H]2Oc3ccc(Br)cc3C[C@H]2OC(=O)NS(=O)(=O)c2ccc(F)cc2)c1,-9%
CCCC(=O)NCCc1c2n(c3ccc(OC)cc13)Cc1ccccc1-2,?
Clc1ccc(OCc2nn3c(C4CCCCC4)nnc3s2)c(Cl)c1,2.8µM*
COc1cc(CC(=O)Nc2ncc(C)s2)cc(OC)c1OC,-10%

Entries above containing two or more sulfur atoms, in the order listed:
Molecule,HPGD block
CCC(C)C1NC(=O)C(CCNCS(=O)(=O)O)NC(=O)C(NC(=O)C(CCNCS(=O)(=O)O)NC(=O)C(NC(=O)C(CCNCS(=O)(=O)O)NC(=O)CCCCC(C)C)C(C)O)CCNC(=O)C(C(C)O)NC(=O)C(CCNCS(=O)(=O)O)NC(=O)C(CCNCS(=O)(=O)O)NC(=O)C(C(C)CC)NC1=O (stereo unspecified),-7%
Fc1ccc(C2CC(c3cccs3)=NN2C(=S)Nc2ccccc2)cc1 (stereo unspecified),-7%

Later entries.
Molecule,HPGD block
CCOC(=O)CSCC(=O)N1N=C(c2cccs2)CC1c1ccc(F)cc1 (stereo unspecified),-28%
O=C(c1ccccn1)c1ncc(C(F)(F)F)cc1Cl,-2%
Fc1ccc(N2CCN(C(c3cccs3)c3nnnn3CCc3ccccc3)CC2)cc1 (stereo unspecified),-2%
O=C1CSC2=NCN(c3ccccc3)CN12,1%
COc1cccc(Cn2c(=O)cnc3cnc(N4CCOCC4)nc32)c1,?
COCCn1nnnc1C(c1ccccc1)N1CCN(c2ccccc2)CC1 (stereo unspecified),1%
Cc1ccc(N=Cc2cc(Cl)cc(Cl)c2O)nc1,?
CC(C)(C)c1nn2cnnc2n(/N=C/c2cccc3ccccc23)c1=O,-6%
COc1cc(-c2nnc(Cn3cc(C(F)(F)F)ccc3=O)o2)cc(OC)c1OC,-8%
Cc1ccc(Cl)cc1NC(=O)c1ccc(CSc2nnnn2C)cc1,-12%
O=C(O)C1C2C=CC3(CN(CC(O)COc4ccccc4)C(=O)C13)O2 (stereo unspecified),-8%
CN(C(=O)c1cccnc1)c1nnc(-c2cccnc2)s1,-18%
O=C(Nc1ccc2c(c1)CCC2)c1cc(S(=O)(=O)Nc2ccc(F)cc2)c(Cl)cc1Cl,-28%
Cn1c(SCC(=O)N2CCN(c3ccccc3)CC2)nnc1-c1cc2ccccc2o1,-20%
O=C(Cc1ccc(-n2c(=O)[nH]c3ccccc3c2=O)cc1)N1CCN(c2ccccc2)CC1,?
O=C(Nc1ccc(N2CCOCC2)cc1)NC1CCCCC1,-10%
Clc1nnc(N/N=C/c2ccccc2)c2ccccc12,-13%
CCn1c(CSc2ncccn2)nnc1SCC(=O)N1CCc2ccccc21,-14%
CCCc1cc(C(=O)OC)c2ccccc2n1,-5%
Cn1c(Cn2c(=O)sc3ccccc32)nnc1SCc1ccccc1,-8%
COc1ccc2[nH]c(=O)c(CN(C(C)=O)c3cccc(C)c3)cc2c1,?
Cc1nc2nc(C)c(CCC(=O)N3CCc4ccccc43)c(C)n2n1,-6%
N#Cc1ccc(C(c2nnnn2C2CCCC2)N2CCC(Cc3ccccc3)CC2)cc1 (stereo unspecified),-7%
COc1cccc(CNCCNC(=O)c2ccco2)c1OC,-11%
CCOC(=O)N1CCC(Nc2c(NCCN3CCN(Cc4ccccc4)CC3)c(=O)c2=O)CC1,-14%
CCOC(=O)c1ccc(NC(=O)CSCC(=O)OCC(=O)c2ccccc2)cc1,-8%
Cc1ccc(C)c2[nH]c(=O)c(CN(CC3CCCO3)S(=O)(=O)c3ccc4c(c3)OCCO4)cc12 (stereo unspecified),55%[activator]
N#CCCCSc1nnc(CSc2nc3ccccc3s2)n1-c1ccccc1,-7%
COCCCNC(=O)C1C2C=CC3(CN(Cc4ccc(C)cc4)C(=O)C13)O2 (stereo unspecified),-1%
O=C(c1csc2c1CCCC2)N1CCN(c2cccc(C(F)(F)F)c2)CC1,-8%
O=C(/C=C/NNC(=O)c1ccccc1)c1ccccc1,-29%
CCCCn1c(=N)n(CC(=O)c2ccco2)c2ccccc21,0%
CCC(=O)N1c2ccc(S(=O)(=O)CCC(=O)Nc3nccs3)cc2CC1C (stereo unspecified),-3%
Cc1ccc(NC(=O)CSc2nc3c(cc2C#N)C(=O)CCC3)cc1S(=O)(=O)N(C)C,-1%
O=C(C1c2ccccc2Oc2ccccc21)N1CCN(c2ccc(Cl)cc2)CC1,-14%
CCCCOC(=O)COc1ccc(Cl)cc1Cl,-19%

Some of the entries above in a different format.
Compound: O=C(C1c2ccccc2Oc2ccccc21)N1CCN(c2ccc(Cl)cc2)CC1
  HPGD block: -14%

Compound: CCCCOC(=O)COc1ccc(Cl)cc1Cl
  HPGD block: -19%

(list continues)
Molecule,HPGD block
COc1cc(/C=N/Nc2nc3ccccc3[nH]2)ccc1O,?
CCOC(=O)C1CCCN(c2ncnc3c2[nH]c2cccc(OC)c23)C1 (stereo unspecified),?
O=C(Nc1ccc2ccccc2c1)/C(=C/c1cccc(Br)c1)NC(=O)c1ccco1,-28%
Cc1cc(C)cc(OCC(=O)Nc2ccc3c(c2)C(=O)c2ccccc2C3=O)c1,-8%
Cc1ccc(S(=O)(=O)N2CC3(C)CN(S(=O)(=O)c4ccc(C)cc4)CC(C)(C2)C3=O)cc1,-4%
CC(C)c1ccc(C2N3CC4([N+](=O)[O-])CN2CC([N+](=O)[O-])(C3)C4(C)C)cc1 (stereo unspecified),1%
COc1ccc(C2(CNC(=O)CCC(=O)O)CCCC2)cc1OC,-3%
CC(C)(C)c1cccc(Oc2nn[nH]n2)c1,-4%
CC(C)CNC(=O)c1ccc(Cl)c(N)c1,-25%
N#Cc1ccc(OCC(=O)NCCc2ccccn2)cc1,-5%
O=C(C1CCCN(Cc2ccccc2)C1)N1CCCCC1 (stereo unspecified),28µM*
CCn1c(SCC(=O)OC(C)C)nnc1-c1cccc(Cl)c1,-11%
c1ccc(OCCOCCSc2ncccn2)cc1,-10%
CC(C)(C)c1ccc(OCC(=O)O)cc1,0%
Cc1cc(C)c[n+](-c2nc([O-])sc2C=O)c1,-3%
CCOC(=O)c1cc(-c2ccccc2)nn1-c1ccccn1,-20%
CCCc1nc2oc3c(NCCN4CCOCC4)ncnc3c2c2c1CCCC2,-7%
O=C(NNC(=O)c1ccccc1-n1cccc1)c1ccc(Cl)c(Cl)c1,-2%
Cc1ccc(-c2cc(C(F)F)n3ncc(C(=O)Nc4ccc(S(=O)(=O)Nc5ccccc5C)cc4)c3n2)cc1,-25%
CCOC(=O)N1CCN(c2c(NCc3ccc(N(C)C)cc3)c(=O)c2=O)CC1,-6%
CC1(C)CC(=O)C2=C(C1)N(CC1CCCO1)C(=O)C2(O)C(F)(F)F (stereo unspecified),-3%
Cc1ccccc1NC(=O)Cn1nnc(S(=O)(=O)c2ccc(C(C)(C)C)cc2)c1N,-8%
COc1ccc(OCC(=O)N2CCN(c3cccc(C(F)(F)F)c3)CC2)cc1,-2%
CC(C)(C)c1cc(C(=O)N/N=C/c2ccco2)n[nH]1,-11%

Pulled by structure from above, 2 records:
Molecule,HPGD block
CCCc1nc2oc3c(NCCN4CCOCC4)ncnc3c2c2c1CCCC2,-7%
CC(C)(C)c1cc(C(=O)N/N=C/c2ccco2)n[nH]1,-11%

(next part)
Molecule,HPGD block
NNC(=O)c1nc(-c2ccccc2)n2c1CCCCC2,-10%
O=C(NC(=S)NCCN1CCOCC1)c1ccc(F)cc1,-1%
ON(CCc1ccccn1)Cc1ccccc1,-7%
CCNC(=S)N(CCc1c(C)[nH]c2ccccc12)Cc1cc(OC)c(OC)c(OC)c1,-10%
NC(=O)CSc1nnc(COc2ccccc2)n1CCc1ccccc1,-3%
O=C(O)CCCC(=O)Nc1c(F)c(F)c(F)c(F)c1F,-8%
COC(=O)c1cccc(NC(=O)CSc2nnc(COc3ccc(C#N)cc3)n2-c2ccccc2)c1,-18%
O=C1c2ccccc2C(=O)N1CC#CCN1CCN(C(c2ccccc2)c2ccccc2)CC1,-11%
O=C(NC(Nc1ncc(S(=O)(=O)c2ccc([N+](=O)[O-])cc2)s1)(C(F)(F)F)C(F)(F)F)c1ccc(Cl)cc1,-4%
CCNC1=C(Cl)C(=O)c2ccccc2C1=O,-20%
Cc1ccc(S(=O)(=O)N/N=C/c2cc(Br)c(C)o2)cc1,-26%
Cc1ccc(S(=O)(=O)N2c3ccccc3NC(=O)CC2C)cc1 (stereo unspecified),1%

HPGD block, hit marks shown above.
Molecule,HPGD block
Clc1ccc(OCc2nn3c(C4CCCCC4)nnc3s2)c(Cl)c1,2.8µM*
O=C(C1CCCN(Cc2ccccc2)C1)N1CCCCC1 (stereo unspecified),28µM*

(next part)
Molecule,HPGD block
O=C(COc1ccccc1[N+](=O)[O-])NCc1cccnc1,-16%
CCOc1ccc(NC(=O)c2ccc(N)cc2)cc1,-14%
Cc1c(C(=O)O)cccc1-c1ccc(/C=N/Nc2ccc(Br)cc2)o1,?
Cn1c(SCc2nc3ccccc3[nH]2)nnc1-c1cccs1,-16%
COc1ccc(CNC(=O)C2COc3ccccc3O2)c(OC)c1 (stereo unspecified),4.5µM*
Cc1c(Cl)cnc(NC(=O)COC(=O)Cc2coc3ccc4ccccc4c23)c1Cl,-4%
O=C(CSc1ccc(-c2nc3ccccc3[nH]2)cn1)Nc1ccc(S(=O)(=O)NC2CC2)cc1,?
CCOc1ccc(NC(=O)CCS(=O)(=O)c2ccc3c(c2)CCCN3C(C)=O)cc1,-5%
Cc1ccc(C(=O)NCC(=O)Nc2ccccc2C(F)(F)F)cc1,-11%
Cc1cc(Oc2ccccc2F)nc(NCc2ccccc2)n1,-16%
CCc1ccc(NC(=O)CSc2nnc(-c3cccs3)n2CC)cc1,-12%
CC1CCCN(C(=O)CSCC(=O)N=c2sc3ccccc3n2C)C1 (stereo unspecified),?
CCNC(=O)c1ccccc1-c1nc(-c2ccccc2Cl)no1,?
N#CCC(=O)NCCCOC(=O)Nc1ccc(Cl)c(Cl)c1,-14%
Cn1nnnc1SCc1cn2cccnc2n1,?
Cc1ccccc1-n1c(C)nnc1SCC(=O)N1CCc2ccccc2C1,-30%
CCN(CC)C(=O)CSc1nnc(NC(=O)CCc2ccccc2)s1,-2%
CSc1ccc(/C=N\NC(=O)COc2ccc(Cl)cc2Br)cc1,?
Oc1ccc2c(c1)OCC1c3cc4c(cc3OC21)OCO4 (stereo unspecified),-5%
O=C(CSc1nc(-c2cccs2)cc(C(F)(F)F)n1)NCc1ccco1,?
Cc1nc(CSc2nnc(Nc3cccc(C)c3C)s2)cs1,-5%
COc1cccc(/C=C/C(=C2/C(=O)N(c3ccccc3)N=C2C)c2ccc(C)cc2)c1OC,-8%
Cc1ccccc1C(=O)Oc1ccc(Br)cc1C(=S)N1CCCC1,-18%
O=C(NC1CCCCCC1)c1ccc(N2CCCC2=O)cc1,?
CC(C)CC(=O)Nc1ccc(C(=O)NNC(=O)C(c2ccccc2)c2ccccc2)cc1,-12%
CCCc1ccc(OCc2nc(-c3ccc(NC(=O)c4cccs4)cc3)no2)cc1,?
CCOC(=O)C1CCCN(C(=O)C2CC(=O)N(c3ccc(C)cc3)C2)C1 (stereo unspecified),1%
Cc1cccc(-c2nc(CSCC(=O)N3CCN(c4ccccn4)CC3)c(C)o2)c1,-12%
CS(=O)(=O)CCNCc1nc(-c2ccc3ncnc(Nc4ccc(OCc5cccc(F)c5)c(Cl)c4)c3c2)cs1,-28%
COC(=O)CCN(C(=O)C1C2CC3CC(C2)CC1C3)c1ccccn1 (stereo unspecified),-6%
Cc1cccn2c(=O)c(/C=C(\C#N)C(N)=O)c(N3CCN(Cc4ccc5c(c4)OCO5)CC3)nc12,-1%
O=C1CCCN1CC(CN1CCOCC1)Sc1nnnn1-c1ccccc1 (stereo unspecified),-6%
CCN1CCCC1CNCc1cccc(OC)c1OCc1ccc(F)cc1 (stereo unspecified),-1%
O=C(Nc1cccnc1)c1cc(-c2cccnc2)nc2ccc(Br)cc12,-14%
O=C(Cn1cc(S(=O)(=O)Cc2ccccc2)c2ccccc21)Nc1ccccc1,-14%
Cc1ccc(C)c(S(=O)(=O)Nc2ccc(S(=O)(=O)Nc3onc(C)c3C)cc2)c1,-20%
CC(=O)NC(CCC(=O)O)C(=O)O (stereo unspecified),-15%

Screening results (PubChem)

Not all compounds are listed (hit frequency here may not be typical).
